From PubChem
HPGD block – blocks human HPGD enzyme activity. P15428. purified HPGD, NADH fluorescence kinetic, PGE2 substrate. Potency, µM, for the others: top-dose activity change, negative = inhibition, actives largely listed as inhibitors. hit rate 4.3% among 150,000. AID 894; active = well fitted inhibition curve with a large enough effect (not every such curve was filed as active); inconclusive = small, poorly fitted or top-dose-only effect, or another doubt; inactive = no such curve, though single readings can be large or run the other way;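 note: top concentration of the series not given in the record; plate controls included wells without enzyme; inactives centre near -10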
Target sequence (P15428 whole entry, looked up): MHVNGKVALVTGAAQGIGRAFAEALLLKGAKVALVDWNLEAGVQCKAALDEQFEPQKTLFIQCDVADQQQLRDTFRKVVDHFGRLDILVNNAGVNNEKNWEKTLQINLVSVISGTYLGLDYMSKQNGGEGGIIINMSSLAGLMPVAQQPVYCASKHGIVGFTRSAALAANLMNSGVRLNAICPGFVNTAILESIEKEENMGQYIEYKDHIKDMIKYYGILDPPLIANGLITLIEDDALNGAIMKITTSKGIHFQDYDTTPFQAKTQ
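NADH formation kinetics: reaction with 30 uM PGE2 and 1 mM NAD+ (final), 20 nM enzyme, Tris-HCl pH 8 with Tween 20, after 15 min compound preincubation at room temperature. Fluorescence change, last versus first of five reads.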
* marks the source's active call; other numbers are inactive results; ? = inconclusive. % is set by controls: 0 for no effect and ±100 for the full control effect; potency is the fitted concentration of half-maximal effect. These rows are one share of the data; rates above refer to the full screens.

SMILES | HPGD block
N#C/C(=C/c1cccs1)c1nc2ccccc2[nH]1 | -13%
Nc1nc(-c2ccco2)nn1C(=O)c1ccccc1 | ?
CCNC(=S)Nc1cc(OCC)c(N2CCOCC2)cc1OCC | -12%
CN(C)S(=O)(=O)c1cc([N+](=O)[O-])ccc1N1CCCCCC1 | -14%
CC(C)(C)c1ccc(C(=O)NC(=S)Nc2sc3c(c2C#N)CCC3)cc1 | ?
COc1ccc(NS(=O)(=O)c2ccc(NC(=S)NC(=O)/C=C/c3ccc(C)cc3)cc2)nn1 | -12%
Cc1c(NC(=O)CCCOc2ccccc2)cccc1[N+](=O)[O-] | -13%
COCC(=O)Nc1nnc(C2CCCCC2)s1 | -14%
Cc1ccc(N=Nc2c(C)[nH][nH]c2=O)c(C)c1 | 0%
Cc1[nH]c2ccccc2c1/C=N/Nc1ccc(F)cc1F | -21%
COCCN(Cc1ccccc1)P(=O)(O)c1ccccc1OCC(=O)O | -3%
Cc1cccc(N(C2C=CS(=O)(=O)C2)S(=O)(=O)c2ccccc2)c1 (stereo not given) | -7%
O=C(c1ccccc1)c1nn(-c2cccc(Cl)c2)c2nc(-c3ccccc3)cc(=O)n12 | -4%
CCc1ccc(O)c(N=Cc2ccccc2O)c1 | 1%
Cc1nc(N2CCOCC2)c2oc3ccccc3c2n1 | -15%
CN1CCN(C(=O)C2C3C=CC(C3)C2C(=O)O)CC1 (stereo not given) | -9%
O=c1cc(CSc2nnnn2-c2ccccc2)nc(Nc2ccc(F)cc2)[nH]1 | -6%
O=C(CN1CCN(c2ccccc2)CC1)Nc1ccc(Oc2ccccc2)cc1 | -10%
Cc1ccc(Cn2ccc(NC(=O)c3cc(-c4ccc(F)cc4)on3)n2)cc1 | -24%
CCNc1nc(Oc2ccc(=O)n(-c3ccccc3)n2)nc(N2CCOCC2)n1 | 2%
O=C(NC(Cc1c[nH]c2ccccc12)C(=O)Nc1ccc(OC(F)(F)F)cc1)c1cccs1 (stereo not given) | -4%
COc1ccc(OC)c(C2=C[N+](=O)C(C)(C)C(C)(C)N2[O-])c1 | -2%
CCOc1nc(Nc2ccc(F)cc2)nc(N2CCN(c3ccc(OC)cc3)CC2)n1 | -7%
O=c1[nH]c2ccc(N/C(=N/S(=O)(=O)c3ccccc3)c3ccccc3)cc2[nH]1 | -8%
C=CCN1c2ccccc2[C@]23C[C@@H](C(=O)OC)N(C(=O)OCC)C2=NC(C(=O)OC)=C(C(=O)OC)[C@H]13 | 0%
CC12CN3CC(C)(CN(C1)C3c1ccc3ccccc3c1O)C2=O (stereo not given) | -10%
Cn1cnnc1SCC(=O)NNC(=O)c1ccc(Cl)cc1 | -9%
CCCSc1nc2sc3c(c2c(=O)[nH]1)CCN(Cc1ccccc1)C3 | ?
COc1ccc(/C=N/NC(=O)C(=O)NCC2CCCO2)cc1 (stereo not given) | -2%
CN(Cc1ccco1)C(=O)c1c[nH]c2ccc(S(=O)(=O)Nc3ccc4c(c3)OCCO4)cc2c1=O | 18µM*

Some of these compounds in order of SMILES length, rising.
SMILES | HPGD block
CCc1ccc(O)c(N=Cc2ccccc2O)c1 | 1%
Cc1nc(N2CCOCC2)c2oc3ccccc3c2n1 | -15%
Nc1nc(-c2ccco2)nn1C(=O)c1ccccc1 | ?
N#C/C(=C/c1cccs1)c1nc2ccccc2[nH]1 | -13%
Cn1cnnc1SCC(=O)NNC(=O)c1ccc(Cl)cc1 | -9%
Cc1[nH]c2ccccc2c1/C=N/Nc1ccc(F)cc1F | -21%
CN1CCN(C(=O)C2C3C=CC(C3)C2C(=O)O)CC1 (stereo not given) | -9%
Cc1c(NC(=O)CCCOc2ccccc2)cccc1[N+](=O)[O-] | -13%
CCCSc1nc2sc3c(c2c(=O)[nH]1)CCN(Cc1ccccc1)C3 | ?
O=C(CN1CCN(c2ccccc2)CC1)Nc1ccc(Oc2ccccc2)cc1 | -10%
CN(C)S(=O)(=O)c1cc([N+](=O)[O-])ccc1N1CCCCCC1 | -14%
CC(C)(C)c1ccc(C(=O)NC(=S)Nc2sc3c(c2C#N)CCC3)cc1 | ?
Cc1ccc(Cn2ccc(NC(=O)c3cc(-c4ccc(F)cc4)on3)n2)cc1 | -24%
CCOc1nc(Nc2ccc(F)cc2)nc(N2CCN(c3ccc(OC)cc3)CC2)n1 | -7%
O=C(c1ccccc1)c1nn(-c2cccc(Cl)c2)c2nc(-c3ccccc3)cc(=O)n12 | -4%
O=C(NC(Cc1c[nH]c2ccccc12)C(=O)Nc1ccc(OC(F)(F)F)cc1)c1cccs1 (stereo not given) | -4%
COc1ccc(NS(=O)(=O)c2ccc(NC(=S)NC(=O)/C=C/c3ccc(C)cc3)cc2)nn1 | -12%
CN(Cc1ccco1)C(=O)c1c[nH]c2ccc(S(=O)(=O)Nc3ccc4c(c3)OCCO4)cc2c1=O | 18µM*
C=CCN1c2ccccc2[C@]23C[C@@H](C(=O)OC)N(C(=O)OCC)C2=NC(C(=O)OC)=C(C(=O)OC)[C@H]13 | 0%

More compounds follow.
SMILES | HPGD block
Cc1ccc(-c2nnn(CC(=O)N(Cc3ccccc3)C(C(=O)NC3CCCC3)c3ccncc3)n2)o1 (stereo not given) | 3%
CCCC(=O)OCCNC(=O)c1cc2ccccc2oc1=O | -25%
Cc1ccccc1C(=O)NCCCCc1ccccc1 | ?
CC(C)N=C(NC#N)SCc1ccc(Br)cc1 | -10%
CCCCS(=O)c1c(O)c2ccccc2[nH]c1=O (stereo not given) | -11%
Cn1c(C(=O)N2CCCC(C(=O)NCCc3ccccc3)C2)cc2sccc21 (stereo not given) | -17%
COc1ccccc1-c1nc(-c2ccc(Br)o2)no1 | ?
COC(=O)CCC(=O)OC1(C)C(=O)C2=CN(CCCCO)C(c3ccc(OC)cc3)=CC2=C(Br)C1=O (stereo not given) | -3%
CCn1c(SCc2ccccc2Cl)nc2nc3c(cc2c1=O)CCCC3 | -13%
Cc1ccc(CSCC(=O)Nc2ccc(F)cc2)cc1 | -11%
COC(=O)c1c(C)cc(O)cc1O | -20%
COc1ccc(Nc2nc(C)cc(C)c2C#N)cc1 | ?
Cc1ccc(SCc2cc(=O)[nH]c(N3CCN(Cc4ccc5c(c4)OCO5)CC3)n2)cc1 | -4%
Cn1cc(Br)c(C(=O)Nc2nccs2)n1 | -7%
CC(=O)c1ccc(-n2nnnc2SCC(=O)NNC(=O)c2ccco2)cc1 | -12%
CCn1c(SCC(=O)c2ccccc2)nnc1-c1cc2cc(Br)ccc2o1 | -21%
COc1ccc(C(=O)Nc2ccccc2)cc1[N+](=O)[O-] | -7%
CC(=O)NC(Cc1c[nH]c2ccccc12)C(=O)OCC(=O)Nc1ccc2c(c1)OCO2 (stereo not given) | -6%
CCOc1ccc(NS(=O)(=O)c2ccc(SC)cc2)cc1 | -5%
Cc1ccc2nc(NC(=O)CN3CCOCC3)sc2c1 | -8%
Cc1nn(C(C)C(=O)NNC(=S)Nc2ccc(F)cc2)c(C)c1[N+](=O)[O-] (stereo not given) | -6%
Cc1c(NC(=O)N2CCCCCC2)c(=O)n(-c2ccccc2)n1C | -3%
CC1CC(C)CN(C(=O)CSc2nnc(CSc3ncccn3)n2C)C1 (stereo not given) | 1%
Cc1cc(C)c(NC(=O)c2cc3c(nc4sccn43)s2)c(C)c1 | -18%
CCOc1ccc(-n2c(SCC(=O)Nc3cc(C)on3)nc3c([nH]c4ccccc43)c2=O)cc1 | -16%
CCC(=O)Nc1cccc(Oc2nc(C)cc(C)c2C#N)c1 | -6%
O=C1/C(=C\c2ccncc2)SC(=S)N1C1CCCCC1 | -10%
CC(C)c1ccc(CNc2cc(N3CCCC3)ccc2[N+](=O)[O-])cc1 | -25%
C=COCCNC(=O)C(=O)NC(C)C | -5%
CCCn1c(N)c(C(=S)NC(=O)C2CC2)c(=O)n(C)c1=O | -12%
Cn1c(Cn2c(=O)sc3ccccc32)nnc1SCC(=O)Nc1ccccc1 | -10%
CC(C)C1Cc2c(sc3c2c(=O)n(Cc2ccccc2)c2nncn32)CO1 (stereo not given) | ?
O=C(COc1ccc(C(=S)N2CCOCC2)cc1)N1CCCC1 | -17%
COc1ccc(N2CC(C)Cn3c2nc2c3c(=O)[nH]c(=O)n2C)cc1 (stereo not given) | -11%
CN(C)c1ccnc2sc3c(NCC(O)CO)ncnc3c12 (stereo not given) | -1%
O=C(O)c1cccnc1SC1CC(=O)N(c2cccc(C(F)(F)F)c2)C1=O (stereo not given) | -16%
Cc1cc(O)ccc1NC(=O)CCN1C(=O)c2ccc([N+](=O)[O-])cc2C1=O | -14%
COc1ccc(-c2csc(NC(=O)c3ccc(OCC(=O)N4CCOCC4)c(OC)c3)n2)cc1OC | ?
Cc1ccc(CN2CCSCC2)c(C)c1 | -4%
COc1ccc(-c2nnc(SCC(=O)N3CCCC(C)C3)o2)c(OC)c1 (stereo not given) | 16µM*
CC(c1ccccc1)N1C(=O)C2C3CCC(C3)C2C1=O (stereo not given) | ?
COc1cc2c(cc1OC)C(c1ccc(-c3ccc(Cl)cc3Cl)o1)=NCC2 | -4%
N#C/C(=C\c1ccc(Br)s1)C(=O)N1CCN(c2ccccc2)CC1 | -29%
CC(=O)N1c2c(cc(Br)cc2S(=O)(=O)NCc2cccnc2)CC1C (stereo not given) | -1%
Brc1cnc(N2CCOCC2)nc1N1CCCCC1 | 5%
O=C(CSc1nnc(-c2ccncc2)n1CCc1ccccc1)NCc1ccccc1 | -7%
CC(C)c1ccc(C2CC(=O)N3CN(Cc4ccco4)CSC3=C2C#N)cc1 (stereo not given) | 16µM*
CCn1c(=O)cc(OCC(=O)Nc2cccnc2)c2ccccc21 | -18%
CC1(C)CCC(NC(=O)[C@@H](N)CCC(=O)O)CC1 | -4%
CCC(c1nnnn1CCc1ccccc1)N(Cc1ccco1)Cc1cc2cc(C)cc(C)c2[nH]c1=O (stereo not given) | -20%
Cc1ccc(NC(=O)COC(=O)c2ccc3c(c2)OCO3)cc1S(=O)(=O)N1CCCCC1 | -8%
O=C(OCC1OC(OC(=O)c2cc(O)c(O)c(OC(=O)c3cc(O)c(O)c(O)c3)c2)[C@@H](OC(=O)c2cc(O)c(O)c(OC(=O)c3cc(O)c(O)c(O)c3)c2)C(OC(=O)c2cc(O)c(O)c(OC(=O)c3cc(O)c(O)c(O)c3)c2)C1OC(=O)c1cc(O)c(O)c(OC(=O)c2cc(O)c(O)c(O)c2)c1)c1cc(O)c(O)c(OC(=O)c2cc(O)c(O)c(O)c2)c1 (stereo not given in full) | 3.2µM*
O=C1c2ccccc2C(=O)N1CCc1nn[nH]n1 | -5%
COc1ccc(-c2n[nH]c(C)c2-c2cc(OC)ccc2O)cc1 | -20%
O=C(NC1(C(F)(F)F)NC(=O)N(c2ccccc2F)C1=O)c1ccncc1 (stereo not given) | -10%
Cc1noc(C)c1S(=O)(=O)Nc1c(C)n(C)n(-c2ccccc2)c1=O | 7%
COc1ccc(-c2noc(-c3ccc(Br)o3)n2)cc1OC | 1%
CC(c1ccccc1)N1CNc2c(c(=O)n(C)c(=O)n2C)C1 (stereo not given) | -7%
C=CCn1c(=O)c2ccccc2n2c(SCc3cc(=O)n4ccsc4n3)nnc12 | -2%
COc1ccc(C(=O)N(CN2CCCC2=O)c2nccs2)cc1OC | ?

An excerpt taken from the entries so far:
SMILES | HPGD block
O=C(CSc1nnc(-c2ccncc2)n1CCc1ccccc1)NCc1ccccc1 | -7%
CC(C)c1ccc(C2CC(=O)N3CN(Cc4ccco4)CSC3=C2C#N)cc1 (stereo not given) | 16µM*
CCn1c(=O)cc(OCC(=O)Nc2cccnc2)c2ccccc21 | -18%

The list goes on.
SMILES | HPGD block
OC(COc1cccc2ccccc12)CN1CCN(c2ccccn2)CC1 (stereo not given) | -7%
Cc1[nH]n(-c2ccc(S(=O)(=O)O)cc2)c(=O)c1N=Nc1ccccc1 | -7%
O=C(c1cc(-c2cccc(O)c2)on1)N1CCOCC1 | -26%
CCSc1ncc(Cl)c(C(=O)N(Cc2ccc(N(C)C)cc2)C2CCS(=O)(=O)C2)n1 (stereo not given) | -2%
CNC(=S)N1N=C(c2ccc(Br)cc2)CC1c1ccc(Br)cc1 (stereo not given) | -17%
CCN(CC)S(=O)(=O)c1ccc(-c2nnc(SCC(C)=O)o2)cc1 | -21%
CCC(C)NC(=O)COC(=O)c1ccccc1OCC(=O)Nc1ccc(Br)cc1 (stereo not given) | -17%
Cc1ccc(C(CC(=O)O)Nc2nc(N3CCCCC3)nc(N3CCCCC3)n2)cc1 (stereo not given) | -19%
CCOc1ccc(C(=O)CSc2nnc3ccccn23)cc1 | -4%
CC(=O)NC(c1ccccc1)c1nc2ccccc2[nH]1 (stereo not given) | 3%
COc1ccc(C2=C/C(=C/c3cccnc3)C(=O)O2)cc1OC | -6%
Clc1ccc(-n2ncc3c(NCCCn4ccnc4)ncnc32)cc1 | ?
Cc1cccc(C(=O)OCc2cc3ccccc3[nH]c2=O)c1 | -7%
CCCCCCc1cc2cc(-c3nnc(-c4ccccc4)o3)c(=O)oc2cc1O | ?
O=C(CN(CC1CCCO1)C(=O)CNS(=O)(=O)c1ccc(Cl)cc1)NCCc1ccccc1 (stereo not given) | 2%
O=C(NC(=S)N1CCCCCC1)C1CC1 | ?
CCc1ccc(/C=C/C(=O)C2C(=O)c3ccccc3C2=O)cc1 | -11%
CCOC(=O)[C@H](N)/C=C(\C)CP(=O)(O)O | -1%
CS(=O)(=O)c1ccc(CNC(=O)[C@@H]2C[C@H]2[C@@H](NP(=O)(c2ccccc2)c2ccccc2)c2ccccc2)cc1 | -12%
CCCc1nc2ccccc2c(=O)n1/N=C/c1c(C)[nH]n(-c2ccc(C)cc2)c1=O | -14%
O=C(CSc1nnc(-c2cccnc2)n1Cc1ccco1)Nc1nc(-c2ccc(F)cc2)cs1 | -1%
CCN1C(=O)N[C@@H](c2cccs2)C(C(C)=O)=C1C | -1%
COc1ccc(NC(=S)N(CCc2c(C)[nH]c3ccccc23)Cc2cccnc2)cc1 | -13%
Clc1cc2c(c(Cn3cnc4ccccc43)c1)OCOC2 | -9%
